GLA inh pH 4.5 = inhibitors of human alpha-galactosidase A at pH 4.5. purified enzyme, 4-MU-alpha-Gal fluorescence, pH 4.5. P06280. activity change, negative = inhibition, % at 105 µM. AID 1467. 230,000 tested, under 10 active; inconclusive = small, poorly fitted or top-dose-only inhibition, or a rising curve; inactive = flat fitted curve, though single readings scatter; no compound was filed as active;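 also: 0% = full activity with enzyme and -100% = basal without enzyme; dose as in the result columns while the protocol names 77 µM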
Target sequence (P06280 whole entry, looked up): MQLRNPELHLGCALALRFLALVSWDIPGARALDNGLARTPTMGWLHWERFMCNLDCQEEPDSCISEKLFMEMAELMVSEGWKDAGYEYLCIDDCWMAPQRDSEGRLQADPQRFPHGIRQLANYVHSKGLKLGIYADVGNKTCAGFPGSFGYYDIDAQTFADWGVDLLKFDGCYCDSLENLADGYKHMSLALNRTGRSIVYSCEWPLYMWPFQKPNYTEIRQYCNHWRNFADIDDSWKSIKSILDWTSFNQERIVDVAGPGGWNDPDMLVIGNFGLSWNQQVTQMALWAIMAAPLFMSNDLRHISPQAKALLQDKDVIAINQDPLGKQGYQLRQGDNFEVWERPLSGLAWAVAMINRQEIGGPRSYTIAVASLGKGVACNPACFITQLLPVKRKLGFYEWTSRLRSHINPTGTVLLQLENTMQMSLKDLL
Rango dissoc inh = inhibition of RanGTP-driven Rango-importin beta dissociation. O95149+P62826. Biochemical FRET Rango-importin beta, RanGTP-induced dissociation. Potency, µM (top dose mostly 46.1 µM), for inactives: at the top dose activity change, negative = inhibition. 0.071% of 340,000 active; active means falling FRET ratio curve, often poorly fitted, with flat reads before Ran was added; inconclusive means other falling curves, or compound fluorescence or quenching; inactive means flat or rising ratio curve;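 also: potency is read from the fitted curve at half-maximal effect; % of control where 0% means no effect; nearly all actives have a fitted effect of over 45% in size; -100% = wells without RanGTP and RCC1; the record marks most hits as doubtful in a second field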
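FRET read at 45 min, room temperature: inhibitors block the CFP/YFP signal rise when RanGTP (0.6 uM Ran, 2 mM GTP, 0.2 uM RCC1) frees Rango (0.1 uM) from importin beta (0.25 uM). Pre-read after 5 min compound exposure flags interference.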
Rango complex inh = prevents formation of the Rango-importin beta complex; Q14974; Rango CFP/YFP FRET sensor + importin beta, 45 min; Potency, µM (doses to about 92.2 µM), without a hit: at the highest dose inhibition of complex formation; 0.031% of 340,000 active; active = rising FRET ratio curve, often small or poorly fitted; inconclusive = mostly compound fluorescence or quenching in the first reads; inactive = flat curves in all reads;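 also: potency is read from the fitted curve at half-maximal effect; 0% = DMSO wells and 100% = buffer wells lacking importin beta; nearly all actives have a fitted effect of over 15% in size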
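FRET biosensor (snurportin 1 IBB flanked by EYFP and cerulean), 50 nM, with compound 5 min, then 0.125 microM importin beta in PBS, 1 mM DTT, 0.02% Tween-20, 0.1% BSA. CFP/YFP ratio read after 45 min at room temperature; pre-read flags interference.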
miR-21 reporter = miR-21 reporter, rising signal. HeLa miR-21 FLuc reporter, luciferase, 48 h. 340,000 tested, under 10 active. Potency, µM (doses to about 38.3 µM), for the others: at the top dose reporter change, positive = more light. AID 2288; active = well fitted rising curve with a large enough effect; inconclusive = small, poorly fitted or top-dose-only effect; inactive = no such curve, though single readings can be large or run the other way;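 also: % of control where 0% means no effect; miR-21 action dims this reporter so a rising signal means less miR-21 action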
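Luminescence from a firefly luciferase reporter carrying a miR-21 binding site downstream, stably expressed under a CMV promoter in HeLa cells that make miR-21 endogenously, reports miRNA modulation after 48 h compound exposure up to approximately 40uM final.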
An asterisk follows results filed as active; ? = inconclusive; nt = no result given. A portion of the library (hit frequency here may not be typical).

Value order – GLA inh pH 4.5	Rango dissoc inh	Rango complex inh	miR-21 reporter
Cc1ccc(NC(=O)NCc2cccnc2)cc1C
→ nt	3%	-0.6%	-6%
CCOC(=O)/C(C#N)=C/c1cn(CCC(=O)O)nc1-c1ccc(Br)cc1
→ 4	29%	-1.0%	3%
CN(C)CCCOC(=O)c1ccc(Br)cc1
→ -1	11%	5.7%	1%
COC(=O)CC(NC(=O)c1cccs1)c1ccc(OC)c(OC)c1 (stereo not given)
→ -4	-5%	4.7%	-9%
COc1ccc(NC(=O)c2cccnc2)cc1
→ nt	21%	-3.5%	-14%
COc1nc(OC)nc(N2CCC(C(=O)Nc3cccc4ccccc34)CC2)n1
→ 0	-10%	-9.7%	-3%
CCc1ccc(NC(=O)CSc2nnc(-c3cnccn3)n2C)cc1
→ nt	3%	0.2%	-7%
Cc1c(C#N)c(O)n(CCO)c(=O)c1N=Nc1ccc2c(c1)COC2=O
→ -10	-3%	14%	-15%
CC1CCCN(Cc2nc3c(c(=O)n(C)c(=O)n3C)n2CCCc2ccccc2)C1 (stereo not given)
→ -4	-12%	-0.7%	-5%
O=C(CCN1C(=O)c2ccccc2S1(=O)=O)NCc1ccccc1Cl
→ nt	25%	?	nt
CN(Cc1ccccc1)C(=O)CSc1n[nH]c(N)n1
→ nt	-3%	0.1%	-5%
Cc1sc2ncnc(N3CCC(C(=O)N(C)CC(=O)Nc4ccccc4Cl)CC3)c2c1C
→ nt	13%	0.8%	29%
CC(C)c1cccc(-c2ccc3c(c2)S(=O)(=O)c2cccc(C(=O)NCc4ccccc4)c2C3=O)c1
→ nt	1%	-3.4%	nt
Cc1ccc(NS(=O)(=O)c2ccc(C(C)(C)C)cc2)cn1
→ nt	-3%	-1.1%	2%
Cc1c(-c2ccccc2)oc2c(C(=O)N3CCN(c4ccc([N+](=O)[O-])cc4)CC3)cccc2c1=O
→ -1	-8%	?	?

Some of these compounds in order of formula weight, ascending:
Value order – GLA inh pH 4.5	Rango dissoc inh	Rango complex inh	miR-21 reporter
COc1ccc(NC(=O)c2cccnc2)cc1
→ nt	21%	-3.5%	-14%
Cc1ccc(NC(=O)NCc2cccnc2)cc1C
→ nt	3%	-0.6%	-6%
CC1CCCN(Cc2nc3c(c(=O)n(C)c(=O)n3C)n2CCCc2ccccc2)C1 (stereo not given)
→ -4	-12%	-0.7%	-5%
CCOC(=O)/C(C#N)=C/c1cn(CCC(=O)O)nc1-c1ccc(Br)cc1
→ 4	29%	-1.0%	3%

Next records:
Value order – GLA inh pH 4.5	Rango dissoc inh	Rango complex inh	miR-21 reporter
N#Cc1cc([N+](=O)[O-])ccc1N1CCCC1
→ -2	1%	4.1%	-18%
Cc1ccc(CN(C(=O)c2ccco2)C2CCS(=O)(=O)C2)cc1 (stereo not given)
→ nt	28%	-3.6%	-5%
O=C(CSc1nnc(CNC(=O)c2c(F)cccc2Cl)o1)Nc1ccccc1
→ 6	-4%	1.4%	-3%
Cc1nn(-c2cccc([N+](=O)[O-])c2)c(N)c1-c1ccccc1
→ 4	10%	3.2%	-62%
COCCCNC(=O)c1cc(Sc2ccc(F)cc2)nc2ccccc12
→ 3	1%	0.7%	-10%
O=C(NC1CCN(Cc2ccccc2)CC1)c1ccc(CS(=O)c2ccc(F)cc2)o1 (stereo not given)
→ nt	-2%	-3.5%	0%
O=C(Nc1cccc2cccnc12)c1cc(F)c(F)cc1Cl
→ nt	-6%	0.4%	-38%
O=C(NCCCn1ccnc1)c1nn2c(C(F)(F)F)cc(-c3ccccc3)nc2c1Cl
→ -7	5%	2.8%	1%
C=CCNC(=O)C1CCN(c2nc(C)cc(-c3ccccc3)n2)CC1
→ 0	0%	0.5%	-42%
CCOc1ccc(OCCC(=O)N2CCc3cc(OC)c(OC)cc3C2)cc1
→ nt	5%	-2.6%	7%
O=C(COc1ccccc1)OCC(=O)N1CCCc2ccccc21
→ nt	-11%	3.8%	nt
COc1ccccc1CC(=O)NC1CCC(C)CC1 (stereo not given)
→ -10	16%	2.5%	-4%
CC(OC(=O)c1ccccc1NCCO)C(=O)Nc1ccc(S(=O)(=O)N2CCOCC2)cc1 (stereo not given)
→ nt	9%	-0.8%	nt
Cc1noc(C)c1S(=O)(=O)N1CCCC(C(=O)NCc2ccccn2)C1 (stereo not given)
→ -1	3%	-0.4%	-4%
O=C(c1ccccc1)c1ccc(Sc2ccc([N+](=O)[O-])cc2)cc1
→ -9	-6%	2.5%	3%

Single records, from the list above. Order of screens: GLA inh pH 4.5, Rango dissoc inh, Rango complex inh, miR-21 reporter
Cc1ccc(NS(=O)(=O)c2ccc(C(C)(C)C)cc2)cn1 is listed with nt, -3%, -1.1%, 2%
Cc1c(-c2ccccc2)oc2c(C(=O)N3CCN(c4ccc([N+](=O)[O-])cc4)CC3)cccc2c1=O is listed with -1, -8%, ?, ?

Following part
Value order – GLA inh pH 4.5	Rango dissoc inh	Rango complex inh	miR-21 reporter
O=c1c(Cl)c(N2CCOCC2)cnn1-c1nc2ccccc2[nH]1
→ -20	1%	3.4%	-36%
CC(C(=O)Nc1cc([N+](=O)[O-])ccc1Cl)N1CCN(c2ccccc2O)CC1 (stereo not given)
→ -23	2%	0.5%	0%
Cc1cc(C)c(OCC(=O)Nc2ccc3c(c2)OCO3)cc1C
→ 3	-11%	-0.2%	-25%
Cc1ccc(OCCNC(=O)CNC(=O)c2ccc3c(c2)OCO3)cc1
→ nt	1%	-0.1%	nt
CON(C)S(=O)(=O)c1cccc(C(=O)Nc2cccc(S(=O)(=O)NC3=NCCCCC3)c2)c1
→ nt	-6%	1.5%	nt
COc1ccc(N(CC(=O)N2CCc3ccccc3C2)S(=O)(=O)c2c(C)[nH]c(=O)[nH]c2=O)cc1
→ 1	0%	-0.2%	-3%
Cc1ccc(C(=O)c2c[nH]cc2-c2ccccc2)cc1
→ 2	0%	-0.1%	-33%
CSCCOC(=O)c1[nH]c2c(c1C)C(=O)CC(c1ccco1)C2 (stereo not given)
→ 2	-10%	0.4%	19%
COc1ccc(-c2cc3ccc(OCC(=O)NCC4CCC(C(=O)O)CC4)cc3oc2=O)cc1 (stereo not given)
→ nt	-16%	-0.9%	-28%
COC(=O)Cn1c(C(O)c2ccccc2)nc2ccccc21 (stereo not given)
→ nt	8%	-2.6%	-7%
O=C(N/N=C/c1cccc2cccnc12)[C@H]1C[C@@H]1c1ccccc1
→ ?	-6%	4.9%	-3%
Cc1cccc(C)c1NC(=S)N(CCN(C)C)Cc1cccs1
→ -10	-10%	-1.5%	4%
CCOc1ccc(S(=O)(=O)N2CCCC(C(=O)N3CCOCC3)C2)cc1 (stereo not given)
→ nt	10%	4.6%	5%
O=C(CSc1ccc(F)cc1)NC1CCCCC1
→ 6	1%	0.6%	-38%
COc1ccc(-c2n[nH]c(=S)n2CC(C)C)cc1
→ 6	12%	-4.3%	1%
CCOC(=O)c1sc2ccccc2c1OC(=O)c1ccc(C)cc1
→ -18	10%	4.8%	-5%
COc1ccc(-c2cc(C(=O)Nc3sc4c(c3C#N)CCCC4)c3ccccc3n2)cc1
→ -7	-3%	0.6%	-11%
CC(NC(N)=O)C(=O)Nc1ccc(Cl)c(S(=O)(=O)Nc2ccc(Br)cc2)c1 (stereo not given)
→ -6	-3%	5.6%	4%
COc1ccc(C(=O)CC(=O)C(=O)Nc2ccc(OC)c(Cl)c2)cc1
→ nt	4%	-1.4%	-15%
COc1ccc(CNC(=O)CCc2cc(OC)c(OC)c(OC)c2)cc1
→ nt	7%	4.4%	-1%
c1csc(CNc2nc3ccccc3n2CCN2CCOCC2)c1
→ -2	18%	0.0%	-2%
CC(=O)NC(Cc1ccc(F)cc1)C(=O)NC1CCN(c2ncccc2[N+](=O)[O-])CC1 (stereo not given)
→ -9	-10%	-2.5%	-1%
O=[N+]([O-])c1ccc(N=NN(CCO)CCO)cc1
→ -20	25%	0.1%	3%
OC(c1ccccc1)c1ccncc1 (stereo not given)
→ nt	6%	1.2%	nt
O=[N+]([O-])c1ccc(N2CCN(S(=O)(=O)c3ccc(Cl)c(Cl)c3)CC2)cc1NCCN1CCOCC1
→ -9	26%	1.7%	-10%
CN(CCOc1ccc(Br)cc1)C(=O)CNC(=O)c1ccc2ccccc2c1
→ nt	-10%	-2.6%	14%
N#Cc1c(-c2ccccc2)ccnc1N1CCOCC1
→ 7	1%	-2.1%	-25%
CCOc1ccc(C(=O)NCC(=O)OCC(=O)Nc2ccccc2OCC)cc1
→ 4	7%	3.7%	0%
O=C(CN(C(=O)CNS(=O)(=O)c1ccccc1)C1CCCC1)NCC1CCCO1 (stereo not given)
→ -8	10%	0.0%	0%
CCc1cc(=O)oc2c(C)c(OCC(=O)NCc3ccccn3)ccc12
→ nt	-18%	-1.4%	3%

A different layout for some results above:
compound	GLA inh pH 4.5	Rango dissoc inh	Rango complex inh	miR-21 reporter
O=[N+]([O-])c1ccc(N2CCN(S(=O)(=O)c3ccc(Cl)c(Cl)c3)CC2)cc1NCCN1CCOCC1	-9	26%	1.7%	-10%
CCOc1ccc(C(=O)NCC(=O)OCC(=O)Nc2ccccc2OCC)cc1	4	7%	3.7%	0%
CCOC(=O)c1sc2ccccc2c1OC(=O)c1ccc(C)cc1	-18	10%	4.8%	-5%
COc1ccc(C(=O)CC(=O)C(=O)Nc2ccc(OC)c(Cl)c2)cc1	nt	4%	-1.4%	-15%

(list continues)
Value order – GLA inh pH 4.5	Rango dissoc inh	Rango complex inh	miR-21 reporter
COc1cccc2c1CCC(NC(C)=O)C2=O (stereo not given)
→ 4	0%	0.1%	-22%
COCc1ccc(C(=O)N2CCCC(CNC(=O)c3ccc(F)cc3)C2)o1 (stereo not given)
→ nt	-4%	1.1%	-1%
Cc1nc2c(cnn2-c2ccc(Cl)cc2)c(=O)n1-c1ccc(N2CCC(C)CC2)cc1
→ -6	nt	nt	2%
COc1ccc(CN(C(=O)c2cc(=O)c3cc(C)cc(C)c3o2)C2CCS(=O)(=O)C2)cc1 (stereo not given)
→ 0	20%	2.3%	-24%
CN(Cc1ccccc1)C(=O)c1[nH]cnc1C(=O)NCCCCCNC(=O)OC(C)(C)C
→ nt	4%	-2.4%	nt
O=C(c1ccc(C(=O)N2CCCc3ccccc32)s1)N1CCCc2ccccc21
→ 2	1%	-0.1%	-4%
O=C(CCn1c(=O)c2ccccc2n(CC(=O)NC2CCCC2)c1=O)NCCc1ccc(Cl)cc1
→ 1	-14%	-0.3%	-10%
O=C1NC(=O)C2(CCCCCC2)N1
→ nt	5%	1.8%	nt
OCCCNCc1cccc2ccccc12
→ 5	-9%	-2.2%	2%
O=C(Nc1c(Cl)cccc1Cl)c1cc(=O)n(Cc2ccccc2)c(=O)[nH]1
→ 1	12%	0.1%	-11%
Cc1cccc2c(=O)c(C(=O)NCc3cccs3)c[nH]c12
→ nt	0%	-4.3%	nt
COCCNC(=O)C(c1ccc(F)cc1)N(Cc1ccccc1)C(=O)CCC(=O)Nc1ccccn1 (stereo not given)
→ nt	9%	2.6%	-1%

Source: PubChem BioAssay (National Center for Advancing Translational Sciences (NCATS))
